Source: PubChem BioAssay
HSV replic up: increases HSV replication in cells. maximum fold increase. actives 0.005% (n = 220,000). HSV replication augmentation in cells, fold increase;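 active means peak rise of 1.5-fold or more in the series; tested in PC3 cells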;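 further: first round at 10 µM; read as green reporter fluorescence; hits show the peak of a series up to 25 µM; 1 = signal of infected wells without compound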
PKD1 kinase inh: blocks activity of human protein kinase D1; PKD1 kinase fluorescence polarization assay; AID 797; Q15139; actives 0.056% (n = 200,000); inhibition, %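 (about 10 µM by stock and volumes)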;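 active means inhibition of 50% or more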;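 further: controls were vehicle for no effect and a reference inhibitor for full effect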
RGS16-Gao HTS: modulates binding between human RGS16 and Galphao; binding response (% of control), % at 10 µM; actives 0.38% (n = 220,000); bead-based flow cytometry RGS16-Galphao binding, fluorescence; actives lie on both sides; O15492+P09471; AID 1441;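 active means below 25% or above 175%, edge rows of some plates excepted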;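 further: Galphao activated by GDP with aluminum fluoride before binding; 100% = wells without compound and 0% = beads without RGS; some results beyond the cut were filed as inactive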
Target sequence (O15492 whole entry, looked up): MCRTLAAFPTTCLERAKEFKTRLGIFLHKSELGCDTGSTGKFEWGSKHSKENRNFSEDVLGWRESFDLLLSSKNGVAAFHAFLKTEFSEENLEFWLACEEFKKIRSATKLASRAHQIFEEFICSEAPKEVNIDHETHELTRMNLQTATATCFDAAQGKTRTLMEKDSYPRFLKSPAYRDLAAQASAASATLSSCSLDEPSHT
Target sequence (P09471 whole entry, looked up): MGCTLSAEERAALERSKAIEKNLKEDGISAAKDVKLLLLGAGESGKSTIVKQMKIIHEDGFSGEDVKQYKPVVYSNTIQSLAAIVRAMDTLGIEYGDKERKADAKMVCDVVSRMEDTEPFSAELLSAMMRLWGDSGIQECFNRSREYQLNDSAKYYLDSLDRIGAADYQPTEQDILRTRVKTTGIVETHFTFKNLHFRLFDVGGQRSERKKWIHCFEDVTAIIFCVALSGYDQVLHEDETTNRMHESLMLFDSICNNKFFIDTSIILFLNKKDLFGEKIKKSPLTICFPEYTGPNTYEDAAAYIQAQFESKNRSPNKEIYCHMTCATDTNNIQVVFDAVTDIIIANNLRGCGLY
GALR2 ag: GALR2 (human) receptor agonism | actives 0.48% (n = 140,000) | GALR2-expressing cells, agonist activation read-out | activation, %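 (tested at 5 µM)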;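 active means above mean plus 3 SD of all compounds, about 5% in these data, not always enough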;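 further: 0% = vehicle buffer wells and 100% = reference agonist at full effect; tested in CHO reporter cells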
Target sequence (O43603 whole entry, looked up): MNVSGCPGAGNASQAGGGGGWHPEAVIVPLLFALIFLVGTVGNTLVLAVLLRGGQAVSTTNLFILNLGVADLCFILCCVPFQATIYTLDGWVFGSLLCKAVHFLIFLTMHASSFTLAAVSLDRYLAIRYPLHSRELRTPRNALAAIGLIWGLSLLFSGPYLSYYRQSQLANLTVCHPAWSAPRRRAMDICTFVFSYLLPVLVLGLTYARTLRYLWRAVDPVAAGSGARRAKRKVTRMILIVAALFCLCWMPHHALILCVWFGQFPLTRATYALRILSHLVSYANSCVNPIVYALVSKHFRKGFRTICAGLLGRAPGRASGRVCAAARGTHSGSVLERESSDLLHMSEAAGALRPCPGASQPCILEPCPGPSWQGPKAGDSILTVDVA
Insulin prom inh: TRM-6 insulin promoter activity inhibition. TRM-6 cells (human fetal islet line), insulin promoter-eGFP reporter, imaging; reporter expression induced with tamoxifen. inhibition, % at 2 µM. actives 0.9% (n = 130,000);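 active means inhibition above the mean plus 3 SD, with well images judged a real hit on visual review, cut at about 60% in these data, passing the limit was not always enough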
Insulin prom inh cell count: recorded beside Insulin prom inh, whose call it bears; normalized cell count, %; measured here: cell count, toxicity; reference of the scale not given here;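 cells exposed to compound for 48 h; stained nuclei by imaging scaled within each plate; lower means fewer cells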
HSV replic up primary fold: also measured in HSV replic up; calls as there; fold increase; compound at 10 µM; measured here: primary screen fold increase 10 uM; tested in PC3 cells;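 GFP signal in the first replicate; 1 = infected wells without compound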
* = called active by the depositor; i = inactive; / = not tested or not shown; & = joins results of further samples.

Results follow in this order: HSV replic up	HSV replic up primary fold	PKD1 kinase inh	RGS16-Gao HTS	GALR2 ag	Insulin prom inh	Insulin prom inh cell count
1. O=C(Nc1cc(N2CCOCC2)ncn1)NC1(C(F)(F)F)Oc2ccc(Cl)cc2O1 (stereo unspecified)
→ i	0.72	-7	94	-0.8	-29	111
2. Cc1ccccc1NC(=O)COC(=O)c1cccnc1
→ i	1.1	3	103	/	21	77
3. CC(C)CCN(C(=S)Nc1cccc(C(F)(F)F)c1)C(C)c1ccccn1 (stereo unspecified)
→ i	0.87	/	102	/	/	/
4. CCOc1cccc2sc(N(CCN(C)C)C(=O)c3ccc(Br)s3)nc12
→ i	0.92	4	99	/	19	114
5. CCOC(=O)c1cc2c(=O)n3ccccc3nc2n(Cc2ccco2)c1=NC(=O)c1ccccc1OCC
→ i	0.96	3	101	/	-25	119
6. CCOc1ccc(OCC(=O)Nc2ccc(OC)cc2[N+](=O)[O-])cc1
→ i	0.98	2	94	/	/	/
7. CC1(C)S[C@@H]2[C@H](NC(=O)[C@H](N)c3ccccc3)C(=O)N2[C@H]1C(=O)O
→ i	0.46&0.81	7&-12	94&103	0.6&-1.7	-32&55	87&80
8. COCCn1c(SCC(=O)Nc2cccc(C(=O)OC)c2)nc2ccccc2c1=O
→ i	1.1	7	107	-1.6	/	/
9. Cc1coc2c1c(C)cc1oc(=O)c(Cc3ccccc3)c(C)c12
→ i	0.65	0	100	-0.4	-6	84
10. COc1ccc(-c2nc(SC(CC(=O)NCCN3CCOCC3)c3cccs3)n[nH]2)cc1 (stereo unspecified)
→ i	0.72	-4	102	/	/	/

More structures follow:
Results follow in this order: HSV replic up	HSV replic up primary fold	PKD1 kinase inh	RGS16-Gao HTS	GALR2 ag	Insulin prom inh	Insulin prom inh cell count
11. CC(O)c1ccc(-n2cnnn2)cc1 (stereo unspecified)
→ i	0.98	-17	102	0.2	14	122
12. Cc1ccc(-n2nc(C(=O)N3CCOCC3)cc2-c2ccc(Cl)cc2)cc1
→ i	0.95	-9	102	-2.5	31	93
13. COc1cc(/C=C/C(=O)OCC(=O)NCCc2ccccc2)cc(OC)c1OC
→ i	1.1	-2	101	/	/	/
14. Cc1nn(CCC(=O)O)c2nc(-c3cccnc3)cc(C(F)(F)F)c12
→ i	0.96	3	101	0.1	/	/
15. CCOC(=O)c1ccc(S(=O)(=O)NCC(c2ccc(N(C)C)cc2)c2c[nH]c3ccccc23)cc1 (stereo unspecified)
→ i	0.95	4	105	-2.0	30	134
16. COc1ccc(O)c(CN2CCN(CCc3ccccc3)C(CCO)C2)c1 (stereo unspecified)
→ i	0.87	0	103	/	/	/
17. O=c1[nH]sc2ccccc12
→ i	0.81	2	78	/	-55	55
18. Cc1cc(C)n(Cc2ccc(Cl)nc2)n1
→ i	0.9	2	112	/	-11	65
19. CCOc1ccccc1N1CC(O)=C(c2nc3ccccc3s2)C1=N
→ i	0.6	0	100	-1.1	-146	28
20. CC(=O)Nc1ccc(S(=O)(=O)n2cnc3ccccc32)cc1
→ i	0.91	-8	104	-0.6	-9	97

Two of the compounds above, in markdown:
| entry | SMILES | HSV replic up | HSV replic up primary fold | PKD1 kinase inh | RGS16-Gao HTS | GALR2 ag | Insulin prom inh | Insulin prom inh cell count |
| --- | --- | --- | --- | --- | --- | --- | --- | --- |
| 17 | O=c1[nH]sc2ccccc12 | i | 0.81 | 2 | 78 | / | -55 | 55 |
| 18 | Cc1cc(C)n(Cc2ccc(Cl)nc2)n1 | i | 0.9 | 2 | 112 | / | -11 | 65 |

More records:
Results follow in this order: HSV replic up	HSV replic up primary fold	PKD1 kinase inh	RGS16-Gao HTS	GALR2 ag	Insulin prom inh	Insulin prom inh cell count
21. CCCCCCNC(=O)C(=O)NCCc1ccc(Cl)cc1
→ i	0.96	-2	102	/	/	/
22. CCn1c(SCC(=O)Nc2sc3c(c2C#N)CCCC3)nnc1-c1ccncc1
→ i	0.95	-7	97	3.4	-7	45
23. CN1C(=O)/C(=N/OC(=O)c2ccccc2)c2ccccc21
→ i	0.9	-4	54	-2.8	7	126
24. COC(=O)c1sccc1NC(=S)N1CCN(C)CC1
→ i	0.98	2	100	/	19	121
25. COc1ccc2[nH]cc(C(=O)CN3CCN(C4CCCCC4)CC3)c2c1
→ i	1	-8	99	-1.9	-16	66
26. Clc1ccc(OCc2nnc3n2CCCCC3)c(Cl)c1
→ i	0.94	/	98	/	/	/
27. CCOc1ccc(NC(=S)Nc2cccnc2)cc1
→ i	1	-7	101	/	/	/
28. CC1=CC(C)C(/C=N/n2cnnc2)C(C)C1 (stereo unspecified)
→ i	0.95	-6	100	-1.7	-100	79
29. O=C(CNC(=S)N(Cc1ccccc1)Cc1cccnc1)NCCN1CCOCC1
→ i	1.1	-1	188	/	-17	52
30. COC(=O)c1ccc(C)c(N(CCO)CCO)c1
→ i	1.1	-1	77	-3.1	/	/

(further entries)
Results follow in this order: HSV replic up	HSV replic up primary fold	PKD1 kinase inh	RGS16-Gao HTS	GALR2 ag	Insulin prom inh	Insulin prom inh cell count
31. COc1ccc(S(=O)(=O)NNC(=O)c2csc(-n3nc(C)cc3C(F)(F)F)n2)cc1OC
→ i	1.2	-7	92	-0.3	-24	124
32. CC(C)C[C@@H](CSc1ccc(Br)cc1)N1CCN(CC(C)C)CCC1=O
→ i	0.74	/	105	/	/	/
33. O=C(c1cc(=O)[nH]c2ccccc12)N1CCc2ccccc2C1
→ i	0.87	2	103	/	40	84
34. COc1nc(N2CCOCC2)nc(-n2cccc2)n1
→ i	0.78	-4	105	-1.1	62	132
35. CCOC(=O)/C=C1\NC(C)(C)Cc2cc(OC)c(OC)cc21
→ i	0.93	4	85	-2.3	/	/
36. CCN1CCN(C(=O)CCN2C(=O)COc3ccc(C)cc32)CC1
→ i	0.83	-4	113	-3.0	-25	71
37. CCn1c(CCNC(=O)c2cccs2)nnc1SCC(=O)c1ccc(OC)cc1
→ i	0.98	-13	/	-1.2	30	90
38. CCc1nn2cc(C(=O)c3cc(C)ccc3O)cnc2c1-c1ccc(F)cc1
→ i	1.1	-2	103	-0.8	15	110
39. CCCCOc1ccc(-c2cnc3ccccc3n2)cc1
→ i	1	0	128	0.6	/	/
40. CC12CC(NC(=O)N1c1cccc(C(=O)N3CCN(c4ccccc4)CC3)c1)c1ccccc1O2 (stereo unspecified)
→ i	0.97	-4	101	-1.6	43	132

Overlap with the part before: 3 entries; new compounds follow.
Results follow in this order: HSV replic up	HSV replic up primary fold	PKD1 kinase inh	RGS16-Gao HTS	GALR2 ag	Insulin prom inh	Insulin prom inh cell count
38. CCc1nn2cc(C(=O)c3cc(C)ccc3O)cnc2c1-c1ccc(F)cc1
→ i	1.1	-2	103	-0.8	15	110
39. CCCCOc1ccc(-c2cnc3ccccc3n2)cc1
→ i	1	0	128	0.6	/	/
40. CC12CC(NC(=O)N1c1cccc(C(=O)N3CCN(c4ccccc4)CC3)c1)c1ccccc1O2 (stereo unspecified)
→ i	0.97	-4	101	-1.6	43	132
41. COc1ccc2nc(NC3=NC(C(=O)Nc4ccc(C)cc4)CC(=O)N3)nc(C)c2c1 (stereo unspecified)
→ i	1	-9	111	-0.9	/	/
42. CC(C)c1cc(NCc2ccccn2)n2c(nc3ccccc32)c1C#N
→ i	0.97	1	96	/	/	/
43. CCOCCCNC(=O)NC12CC3CC(CC(C3)C1)C2
→ i	1.1	-15	104	-0.5	64	88
44. CN(C)c1ccnc2sc(C(=O)c3ccccc3)c(N)c12
→ i	0.92	2	98	0.5	42	127
45. c1ccc2nc(-c3ccc(N4CCOCC4)cc3)ccc2c1
→ i	0.91	-9	107	-0.9	/	/
46. CCSC1=C(C#N)C2(CCCCC2)C(C#N)=C(N)N1
→ i	0.96	-7	82	-2.6	0	69
47. Cn1nc([N+](=O)[O-])c2c(-c3nc4ccccc4s3)c(N)n(C3CCCCC3)c2c1=O
→ i	1.2	-3	100	-3.2	-23	125
48. CC(C)=C1C2CCC1C1C(=O)N(c3ccc4c(c3)OCO4)C(=O)C21 (stereo unspecified)
→ i	1.1	-2	88	-1.4	29	70
49. Cc1ccc(CNC(=O)CCC2CCCN(Cc3ccc4cccc(F)c4n3)C2)o1 (stereo unspecified)
→ i	1.1	-1	98	/	/	/
50. COC(=O)CNC(=O)c1ccc(C)s1
→ i	1	-2	99	-1.1	30	90

Remaining list, next part
Results follow in this order: HSV replic up	HSV replic up primary fold	PKD1 kinase inh	RGS16-Gao HTS	GALR2 ag	Insulin prom inh	Insulin prom inh cell count
51. CC(C)CNC(=S)NNC(=O)CC(C)O (stereo unspecified)
→ i	0.94	6	102	/	42	84
52. CN1CCN(C(=O)CCC(=O)c2ccc(F)cc2)CC1
→ i	1.1	4	164	-2.0	8	180
53. COc1cc(C(=O)N2CCN(C(=O)C(Cc3cc(C)ccc3C)NC(C)=O)CC2)cc(OC)c1OC (stereo unspecified)
→ i	0.96	-6	100	-1.2	/	/
54. O=C(CCc1nc2ccccc2[nH]c1=O)OCC(=O)c1cccc2ccccc12
→ i	0.97	-9	38	-1.6	-83	86
55. Cc1ccc([N+](=O)[O-])cc1-c1ccc(/C=N/NC(=O)CN2CCOCC2)o1
→ i	0.88	/	92	/	/	/
56. CC(=O)c1sc(NC(=O)c2ccc(F)cc2)nc1-c1ccccc1
→ i	0.97	-5	112	/	6	129
57. CC(C)n1nc(C(=O)Nc2nc3ccc(S(C)(=O)=O)cc3s2)c2ccccc2c1=O
→ i	0.83	/	108	/	/	/
58. CCCCC(=O)Nc1ccc(N2CCN(C(=O)CC)CC2)cc1
→ i	0.88	-5	104	0.6	6	143
59. O=C(NCc1ccco1)/C(=C\c1ccco1)NC(=O)c1ccco1
→ i	1.1	/	96	/	/	/
60. CSc1ncc(C(C)=O)c(C)n1
→ i	0.92	3	98	/	/	/

The list continues.
Results follow in this order: HSV replic up	HSV replic up primary fold	PKD1 kinase inh	RGS16-Gao HTS	GALR2 ag	Insulin prom inh	Insulin prom inh cell count
61. Cc1cc(C)c2nc(SC3CCOC3=O)cc(C)c2c1 (stereo unspecified)
→ i	1	-1	42	/	/	/
62. COc1ccc(/C=C/C(=O)Nc2nc(C)cc(C)n2)cc1OC
→ i	1.1	12	145	-2.0	-38	90
63. COc1ccccc1C(=O)C1CCCN(C(=O)c2ccc3c(c2)OCCO3)C1 (stereo unspecified)
→ i	1.1	-5	100	/	/	/
64. Cc1ccc(-c2cc(C(=O)Nc3c(C)n(C)n(-c4ccccc4)c3=O)[nH]n2)c(O)c1C
→ i	1	/	111	/	/	/
65. Cc1ccc(N2CCN(c3cc(C)nc4nc(C)nn34)CC2)c(C)c1
→ /	/	-3	102	0.5	46	96
66. Cc1ccc(-c2nn(CCC(=O)NN3CCOCC3)c(=O)c3ccccc23)cc1
→ i	1	/	97	/	/	/
67. COc1ccc(S(=O)(=O)N2Cc3ccccc3CC2C(=O)Nc2nccs2)cc1OC (stereo unspecified)
→ i	1	0	105	-1.8	-32	108
68. CCCn1c(-c2ccc(OC)cc2)nc2nc3ccccc3nc21
→ i	1.1	19	93	-1.6	17	91
69. Cc1cc(C)c2c(N)c(C(=O)N3CCN(c4ncccn4)CC3)sc2n1
→ i	0.93	-12	97	-2.5	28	75
70. COc1ccc(-c2ccc3ccccc3n2)cc1
→ i	0.66	1	95	/	-40	101

(cont.)
Results follow in this order: HSV replic up	HSV replic up primary fold	PKD1 kinase inh	RGS16-Gao HTS	GALR2 ag	Insulin prom inh	Insulin prom inh cell count
71. Cc1ccc(C)c(N2CCN(C(=S)Nc3ccc4nc(N5CCOCC5)cc(C)c4c3)CC2)c1
→ i	0.72	-5	107	/	18	144
72. COc1ccc(CCCc2nnc(SCC(=O)Nc3nc(C)cs3)n2C)cc1
→ i	0.91	3	100	-0.3	-3	153
73. COc1ccc(C2=C(O)C(C)N(c3ccccc3)C2=N)cc1OC (stereo unspecified)
→ i	0.92	-2	101	-2.1	57	108
74. Cc1cc(C)nc(NS(=O)(=O)c2ccc(Br)s2)c1
→ i	0.98	-8	99	0.1	/	/
75. COc1ccc(N(CCCN2C(=O)c3cccc4cccc(c34)C2=O)C(=O)c2cccc(OC)c2)cc1
→ i	0.91	-1	103	-0.8	/	/
76. Cc1ccc(Oc2c(C(N)=O)cc([N+](=O)[O-])cc2[N+](=O)[O-])cc1
→ i	0.8	-9	91	-2.4	-15	41
77. CSc1ccc(CNc2nnnn2C)cc1
→ i	0.93	-2	106	/	/	/
78. Cc1ccc[n+](C2C(c3ccc([N+](=O)[O-])cc3)C(C#N)=C([S-])NC2(O)C2CC2)c1 (stereo unspecified)
→ i	0.95	-4	102	/	/	/
79. COc1ccc(-c2nnc(SCC(=O)NCC3CCCO3)n2C)cc1 (stereo unspecified)
→ i	0.93	7	100	/	/	/
